# GIV-Gai inh – inhibitors of GIV GBA-motif binding to rat Galpha-i3; P08753; Galpha-i3/FITC-GIV peptide fluorescence polarization, 90 min; active compounds read low; scaled: aluminum fluoride 0%, vehicle 100%; percent of control (FP), % (concentration not given with the values); 210,000 compounds, 0.42% hits;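 active means replicate mean at 85% of control or lower, very high polarization wells dropped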;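 further: wells of about 15 µL received 100 nL stock; the first replicate is given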
# Target sequence (P08753 whole entry, looked up): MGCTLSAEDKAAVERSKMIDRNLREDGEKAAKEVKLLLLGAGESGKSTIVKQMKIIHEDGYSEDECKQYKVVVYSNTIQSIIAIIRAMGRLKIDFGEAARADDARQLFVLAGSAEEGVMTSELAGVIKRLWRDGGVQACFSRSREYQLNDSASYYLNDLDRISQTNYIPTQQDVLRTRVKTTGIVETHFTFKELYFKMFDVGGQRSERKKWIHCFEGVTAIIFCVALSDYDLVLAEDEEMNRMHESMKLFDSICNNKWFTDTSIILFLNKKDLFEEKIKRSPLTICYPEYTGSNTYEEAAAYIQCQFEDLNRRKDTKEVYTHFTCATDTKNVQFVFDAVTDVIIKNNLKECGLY
# HCMV NEC inh – disrupts HCMV UL50-UL53 complex binding; HTRF UL50-UL53 interaction, normalized percent inhibition; inhibition, % (no concentration beside the values); 190,000 compounds, 0.15% hits;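 active means both replicates at 50% or more, plus weaker picks with an unusually low signal ratio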;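 further: stock transfer was 100 nL into about 20 µL; 0% = negative control wells and 100% = wells with untagged competitor protein; inactives centre near -12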
# Sa growth 42C – S. aureus growth inhibition. S. aureus RN4220 growth, OD600, 20 h, 42 °C; active compounds read low. relative growth, % (test concentration not listed). 170,000 compounds, 0.53% hits. AID 720641;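 active means growth at 42 °C up to 50% and 20 or more points under that at 30 °C, or under 10% at both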;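 further: 300 nL library stock went into each well; scaled to the means of positive and negative controls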
# Sa growth 42C second temp – recorded beside Sa growth 42C, whose call it bears; relative growth, %; measured here: growth at 30 °C;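 optical density after 20 h as mean of two plates; 100% = untreated growth and lower means inhibition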
# An asterisk follows results filed as active; . = no result given; & = joins results of further samples.
SMILES,GIV-Gai inh,HCMV NEC inh,Sa growth 42C,Sa growth 42C second temp
Cc1c(Cl)cccc1Nc1sc(C(=O)c2ccccc2)c(N)c1S(=O)(=O)c1ccccc1,110,-16,115,87
O=C(NCCc1ccc(Cl)cc1)C(=O)NCC(c1ccco1)S(=O)(=O)c1ccc(Cl)cc1 (stereo unspecified),98,.,138,93
CCN(CC)C(=O)[n+]1ccc(OC)cc1,102,.,66,29
Cn1c(=O)c2c(nc3n2CC(=O)N(CCc2ccccc2)C3)n(C)c1=O,97,-20,.,.
O=C(CSc1ncn[nH]1)n1c2ccccc2c2ccccc21,103,-30,92,87
CCOc1ccc(C(=O)C(CC(CN2CCOCC2)C(=O)c2ccc(OCC)cc2)CN2CCOCC2)cc1 (stereo unspecified),100,-15,125,83
CCc1ccc(C(=O)COC(=O)c2n[nH]c3ccccc23)cc1,.,-19,99,87
CC(O)c1nc2ccccc2n1Cc1c(F)cccc1Cl (stereo unspecified),103,-22,.,.
CCOC(=O)c1cc(-c2ccc(Cl)cc2)nc2c1c(=O)[nH]c(=O)n2CC(C)C,.,-27,98,92
CCN1CCN(Cc2ccc(NC(=O)C3CCCN(S(=O)(=O)N4CCC5(CC4)OCCO5)C3)cc2)CC1 (stereo unspecified),98,-15,96,84
O=C(c1ccc([N+](=O)[O-])cc1)N1CCN(c2ccc(Nc3ccccc3)nn2)CC1,102,.,125,82
CC(=O)NCCNC(=O)c1cccc(Nc2nn3c(=O)c4ccccc4nc3s2)c1,102,-21,.,.
CCOc1ccc2nc(NCCNC(=O)NCc3ccccc3)c(C#N)cc2c1,96,-12,112,91
CCOC(=O)CCc1c(C)c2cc3c(c(C)c2oc1=O)OCN(CCc1ccccc1OC)C3,101,-14,91,88
O=S(=O)(c1cccc(-c2nc3ccccc3s2)c1)N1CCOCC1,101,-21,105,90
Cc1ccc2nc(NC(=O)CSc3cn(C)c4ccccc34)sc2c1,102,4,119,88
O=C(Nc1cccc2cccnc12)c1ccccc1F,100,-15,.,.
CC(C)(C)c1ccc(/C=C/C(=O)NC2CCS(=O)(=O)C2)cc1 (stereo unspecified),.,-37,77,89
O=S1(=O)CCC(Nc2nc(CN3CCCCC3)nc3sc4c(c23)CCC4)C1 (stereo unspecified),.,-12,70,84
COc1ccc(OC)c(C2/C(=C(/O)c3ccc(C)cc3)C(=O)C(=O)N2c2cccnc2)c1 (stereo unspecified),100,-68,83,81

# 17 entries from above, with two lines to a compound:
# The line under a structure holds: GIV-Gai inh, HCMV NEC inh, Sa growth 42C, Sa growth 42C second temp
> O=C(NCCc1ccc(Cl)cc1)C(=O)NCC(c1ccco1)S(=O)(=O)c1ccc(Cl)cc1 (stereo unspecified)
    98, ., 138, 93
> CCN(CC)C(=O)[n+]1ccc(OC)cc1
    102, ., 66, 29
> Cn1c(=O)c2c(nc3n2CC(=O)N(CCc2ccccc2)C3)n(C)c1=O
    97, -20, ., .
> O=C(CSc1ncn[nH]1)n1c2ccccc2c2ccccc21
    103, -30, 92, 87
> CCOc1ccc(C(=O)C(CC(CN2CCOCC2)C(=O)c2ccc(OCC)cc2)CN2CCOCC2)cc1 (stereo unspecified)
    100, -15, 125, 83
> CCc1ccc(C(=O)COC(=O)c2n[nH]c3ccccc23)cc1
    ., -19, 99, 87
> CC(O)c1nc2ccccc2n1Cc1c(F)cccc1Cl (stereo unspecified)
    103, -22, ., .
> CCOC(=O)c1cc(-c2ccc(Cl)cc2)nc2c1c(=O)[nH]c(=O)n2CC(C)C
    ., -27, 98, 92
> CCN1CCN(Cc2ccc(NC(=O)C3CCCN(S(=O)(=O)N4CCC5(CC4)OCCO5)C3)cc2)CC1 (stereo unspecified)
    98, -15, 96, 84
> O=C(c1ccc([N+](=O)[O-])cc1)N1CCN(c2ccc(Nc3ccccc3)nn2)CC1
    102, ., 125, 82
> CC(=O)NCCNC(=O)c1cccc(Nc2nn3c(=O)c4ccccc4nc3s2)c1
    102, -21, ., .
> CCOc1ccc2nc(NCCNC(=O)NCc3ccccc3)c(C#N)cc2c1
    96, -12, 112, 91
> CCOC(=O)CCc1c(C)c2cc3c(c(C)c2oc1=O)OCN(CCc1ccccc1OC)C3
    101, -14, 91, 88
> O=S(=O)(c1cccc(-c2nc3ccccc3s2)c1)N1CCOCC1
    101, -21, 105, 90
> Cc1ccc2nc(NC(=O)CSc3cn(C)c4ccccc34)sc2c1
    102, 4, 119, 88
> O=C(Nc1cccc2cccnc12)c1ccccc1F
    100, -15, ., .
> CC(C)(C)c1ccc(/C=C/C(=O)NC2CCS(=O)(=O)C2)cc1 (stereo unspecified)
    ., -37, 77, 89

# Continued.
SMILES,GIV-Gai inh,HCMV NEC inh,Sa growth 42C,Sa growth 42C second temp
Cc1cccc(CS(=O)(=O)Cc2ccc(C(=O)NCCCN3CCCC3)o2)c1,99,.,96,81
CN(Cc1ccco1)C(=O)CN1C(=O)/C(=C\c2ccc(C(F)(F)F)cc2)Sc2ccccc21,101,.,100,90
N#Cc1cc2c(nc1SCC(O)CNc1ccc(Cl)cc1)CCCC2 (stereo unspecified),101,-9,116,78
N#Cc1ccccc1NC(=O)c1ccc2c(Cl)c3c(nc2c1)CCCC3,103,-12,93,89
Cc1cccc(NC(=O)Cn2c(=O)c3cccn3c3ccccc32)c1C,102,8,139,96
CCC(=O)Nc1ccc(S(=O)(=O)N2CCOCC2)cc1,105,-2,93,89
CCCNC(=O)c1cc(C)nc2c1c(C)nn2-c1ccc(C)cc1,101,-20,93,90
COc1ccc(NC(=O)Nc2ccccc2SCC2=NNC(=O)c3ccccc3O2)cc1OC,95,-11,.,.
COc1cc(CN(CC2CCCO2)C(=O)c2cccs2)cc(OC)c1OC (stereo unspecified),103,-16,105,85
CNCC(O)(c1ccc(Cl)cc1)c1ccc(Cl)cc1,99,-7,.,.
CCOC(=O)c1ccccc1NC(=O)Cn1nc(-c2ccc(OC)cc2)c2c(C)onc2c1=O,119,-42,.,.
Nc1cccc(Cl)c1N1CCOCC1,104,5,72,87
Cc1ccc(-c2nnc(Nc3ccc(Cl)cc3)c3ccccc23)cc1S(=O)(=O)N1CCOCC1,103,-36,113,98
Cc1ccc(-c2noc(COC(=O)c3ccccc3C(F)(F)F)n2)cc1,.,-21,89,89
Cc1ccc(SCc2cc(=O)[nH]c(Nc3nc(C)c4ccccc4n3)n2)cc1,106,.,110,92
CC1CN(c2ccccc2OC(=O)Nc2ccc(OC(F)(F)F)cc2)CC(C)O1 (stereo unspecified),100,-24,3.0*,6.8*
CCCNC(=O)N1Cc2c(sc3c2CCN(CC)C3)-n2cccc2C1c1ccc(C)cc1 (stereo unspecified),140,-12,.,.
Cc1ccccc1-c1nc2cc(NC(=O)c3cccs3)ccc2o1,101,-4,81,82
Cc1cc(C)c2c(n1)sc1c(Sc3nnc(-c4ccncc4)o3)ncnc12,103,-45,83,89
O=C(NCc1ccccc1)c1cnn2c(C(F)(F)F)cc(-c3ccc(Br)cc3)nc12,99,-14,.,.
Cc1cc(C)cc(NC(=O)Cn2c3ncccc3c(=O)n2-c2ccc(C)c(C)c2)c1,106,.,85,91
Cc1ccc(C(N)CCc2ccco2)cc1C (stereo unspecified),104,4,76,89
O=c1c(N2CCN(c3ccc(F)cc3)CC2)csc2ccc(F)cc12,105,.,92,91
Cc1ccc(S(=O)(=O)C(C#N)=C2N(C)c3ccccc3N2C)cc1,.,-21,100,96
COC(=O)Cn1ncc(N2CCc3ccccc3C2)c(Cl)c1=O,.,-42,75,87
CCOC(=O)C1=C(C)NC(=O)C1CC(=O)Nc1ccccc1 (stereo unspecified),98,.,94,77
O=C(NCCc1csc(-c2ccc(C(F)(F)F)cc2)n1)c1ccccc1Cl,97,.,115,86
Cc1ccc(NC(=O)c2ccc3c(c2)NC(=O)c2ccccc2S3)cc1,102,-36,125,104
O=C(NCCC1=CCCCC1)c1ccccc1,102,2,100,96
O=C(Nc1ccc(N2CCOCC2)cc1N1CCOCC1)c1ncoc1-c1ccccc1F,102,0,84,80
CCOC(=O)c1c(CSC(=N)N)n(-c2ccc(OC)cc2)c2cc(Br)c(OC(C)=O)cc12,100,-10,43,1
NC(=O)C(Cc1ccccc1)NC(=O)C12CC3CC(CC(C3)C1)C2 (stereo unspecified),.,14,97,101
COc1ccccc1NC(=O)Cn1c(=O)n(-c2ccc(CC(=O)NC(C)C)cc2)c(=O)c2ccccc21,105,-19,.,.
CSc1ccc(C=Nc2ccc(C)c(C)c2)cc1,.,6,99,90
CC(NC(=O)c1ccc(C(=O)NC(C)c2ccccc2)s1)c1ccccc1 (stereo unspecified),.,-14,90,93
Cn1/c(=N/N=C/c2ccc(N3CCOCC3)cc2)sc2ccccc21,.,-30,105,95
CCC(=O)N1CCc2cc(Br)cc(S(=O)(=O)CCC(=O)N3CCN(c4cccc(C(F)(F)F)c4)CC3)c21,101,8,101,94
COc1ccc(CCNC(=O)c2ccc3c(c2)CCN3S(C)(=O)=O)cc1OC,102,-4,109,90
Cc1ccc(S(=O)(=O)C(CNC(=O)C(=O)NCCc2ccccc2)c2ccco2)cc1 (stereo unspecified),95,.,104,74
O=C(NCc1ccc(-c2cccs2)cc1)C1=Cc2ccccc2OC1,106,.,90,88
Cc1ccc(-c2nc(NC(=O)CSc3ncnc4sc5c(c34)CCC(C)C5)ns2)cc1 (stereo unspecified),105,-11,100,86
Cc1ccc2c(c1)-c1cc(C)nn1C(c1cc(Br)ccc1O)N2 (stereo unspecified),105,-167,109,104
N#Cc1ccccc1OCC(=O)NC1(C#N)CCCC1,.,-20,102,93
CCCNC(=O)c1ccc2c(c1)N(Cc1ccccc1)C(=O)c1ccccc1S2=O (stereo unspecified),104,12,110,90
CCOc1ccc(N(CC(=O)N2CCN(c3ccc(F)cc3)CC2)S(=O)(=O)c2c(C)noc2C)cc1,97,2,90,63
O=C(O)c1ccc(N2CCN(c3cccc(Cl)c3)CC2)c(NS(=O)(=O)c2ccc(F)cc2)c1,105,-29,.,.
O=S(=O)(NCCc1ccccc1)c1cccc(S(=O)(=O)N2CCOCC2)c1,97,-10,108,88
CN(C)C(=O)c1ccc2c(c1)N(CC(=O)N(C)Cc1ccccc1)C(=O)CO2,107,3,.,.
CNC(=O)CN(C)C(=O)c1ccc(N2CCNCC2)c(NS(=O)(=O)c2cc(C)ccc2C)c1,102,-15,.,.
COCCNC(=O)c1ccc2c(=O)n(-c3ccc(OC)cc3)c(SCC(=O)c3c[nH]c4ccccc34)nc2c1,112,-16,.,.
# Other records follow.
SMILES,GIV-Gai inh,HCMV NEC inh,Sa growth 42C,Sa growth 42C second temp
CC(=O)N1CCN(c2ncc(Cl)cc2Cl)CC1,.,-35,82,87
CCOc1ccc(CCNC(=O)C2Cc3ccccc3N2C(=O)CC)cc1 (stereo unspecified),97,.,105,92
Brc1ccc(C(c2nnc(-c3ccccc3)o2)N2CCN(c3ncccn3)CC2)cc1 (stereo unspecified),98,-17,.,.
CN(C(=O)c1ccco1)c1ccccc1C(=O)NCc1ccccc1,99,-32,103,93
Cc1cc(C)cc(NC(=O)N(CCC(=O)O)Cc2ccccc2)c1,108,-12,108,93
CCOc1ccc(/C=C2/SC(=S)N(CCC(=O)N3CCC(Cc4ccccc4)CC3)C2=O)cc1,104,9,.,.
CC1CCN(C(=O)CSc2nnc(COc3ccc(Cl)cc3)o2)CC1,101,-41,.,.
COc1cc(OC)c(NC(=O)C2=C(C)C(=O)OC23CCCCC3)cc1Cl,105,-34,96,91
CC1(C)CC(=O)C2=C(C1)Nc1ccc3ncccc3c1C2c1ccc(O)c(O)c1 (stereo unspecified),104,.,82,56
Cc1ccc(-c2ccc(=O)n(CC(=O)NC(C)c3ccccc3)n2)cc1 (stereo unspecified),97,.,134,88
Cc1c(C(=O)Nc2ccc(S(N)(=O)=O)cc2)nnn1-c1ccccc1Cl,104,5,.,.
O=C(c1ccc(F)cc1)n1nc(-c2ccccc2)nc1NCc1ccco1,108,-10,97,90
CC(C)c1ccc(NC(=O)CN2C=NS(=O)(=O)c3ccccc32)cc1,105&99,.,122,97
CCOc1ccc(-c2nonc2NC(=O)CC(C)C)cc1C,106,-27,.,.
O=C(NCc1ccccc1Br)c1ccc2nc(N3CCCCC3)sc2c1,98,-34,94,95
O=C(c1ccc2c(c1)N(Cc1ccccc1F)C(=O)c1ccccc1S2=O)N1CCC(Cc2ccccc2)CC1 (stereo unspecified),102,-27,103,91
CC(=O)Nc1cccnc1NC(C)=O,112,-2,94,92
COCCCn1c(=O)c2sccc2n2c(CCCC(=O)NCc3cccc(OC)c3)nnc12,100,.,103,89
Brc1csc(C2SCCS2)c1,107,-9,104,86
Cc1cc(=O)[nH]c(SCc2nc3ccccc3s2)n1,.,-3,94,92
CCCCn1c(SCC(=O)N2CCCC2)nc2cn(C)nc2c1=O,109,-20,.,.
COC(=O)C1CNCCS1 (stereo unspecified),.,-6,86,94

# Single records, from the list above. Order of screens: GIV-Gai inh | HCMV NEC inh | Sa growth 42C | Sa growth 42C second temp
# Cc1c(C(=O)Nc2ccc(S(N)(=O)=O)cc2)nnn1-c1ccccc1Cl is entered as 104 | 5 | . | .
# CCOc1ccc(-c2nonc2NC(=O)CC(C)C)cc1C is entered as 106 | -27 | . | .
# CC(=O)Nc1cccnc1NC(C)=O is entered as 112 | -2 | 94 | 92
